TsaE inh – qHTS Assay for Inhibitors of YjeE; Potency, µM; purified YjeE, fluorescence polarisation of a bound ADP probe; 0.05% of 71,000 active; active = well fitted falling curve; inconclusive = weaker or top-dose-only fall, or a rising curve; inactive = flat or poorly fitted curve;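 also: top concentration of the series not given in the record; excess ADP was the control for the full effect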
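Purified YjeE (10 uM) with BODIPY Texas Red-labeled ADP probe (2 uM); compounds pin-transferred, 15 min at room temperature. Binding inhibition read as decreased fluorescence polarization; ADP titration as control.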
PK Bst – Pyruvate Kinase. partly purified Bacillus stearothermophilus pyruvate kinase, luminescence ATP production; ribose 5-phosphate activator present at AC10. Potency, µM. 1.2% of 51,000 active. AID 361, 2006; in the data active means potency below about 11 µM; inconclusive means mostly about 12 µM to 25 µM; inactive means weaker than that;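 the screen sought inhibitors and activators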;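 also: potency is read from the fitted curve at half-maximal effect; scaled between full activation by ribose 5 phosphate and full inhibition by luteolin; about four in five hits inhibit and the cells do not say which; series up to 57 µM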
* hit, by the source's call; i = inactive; . = no result given. Only part of the results is shown; rates above refer to the full screens.

TsaE inh	PK Bst	Structure
i	>57	Cc1ccc2[nH]c3c(c2c1)CN(C(=O)CN1CCN(c2ccccc2)CC1)CC3
i	.	O=C(O)CC12CSc3[nH]c(=O)sc3C1c1ccccc1OC2=O (configuration not stated)
i	>57	O=C(CN(C(=O)CNS(=O)(=O)c1ccccc1)c1ccc2c(c1)OCCO2)NC1CCCCC1
i	.	CCOC(=O)Cn1c(=NC(=O)CSC(C)=O)sc2ccccc21
i	>57	Cc1ccc(Cn2nnc3c(=O)[nH]c(C4CCN(S(=O)(=O)c5ccccc5)CC4)nc32)cc1
i	>57	CC1(C)CC(=O)C=C(NCC2CCCO2)C1 (configuration not stated)
i	>57	Cc1ccc(NC(=O)C2C3CC4OC(=O)C2C4C3)cc1Cl (configuration not stated)
i	>57	O=C(O)CCn1c(C(=O)O)cc2sccc21
i	.	CN1CCN(c2nc(-c3ccc4c(c3)OCO4)nc3ccccc23)CC1
i	.	Clc1ccccc1N1CCN(c2ncnc3nc[nH]c23)CC1
i	.	Cc1ccc(NC(=O)OCC(F)(F)C(F)F)cc1NC(=O)OCC(F)(F)C(F)F
i	.	Cc1ccccc1-c1cc(N2CCNCC2)ncn1
i	>57	Cc1ccc2cc(C#N)c(NCCNC(=O)C3CCC3)nc2c1C
i	>57	CCCCn1c(SCC(=O)N2CCOCC2)nnc1-c1cccs1
i	.	Cc1c(C#N)c2ccccc2n1CC(=O)N1CCc2ccccc2C1
i	>57	CC(C)(CN1CCCCC1)NS(=O)(=O)c1ccc(Cl)cc1
i	>57	COC(=O)c1ccc(C(=S)N2CCOCC2)cc1
i	>57	CCC(NC(=O)NCCCn1ccnc1)(C(F)(F)F)C(F)(F)F
i	>57	CCC(=O)c1ccc(OCC(O)CN2CCN(c3cccc(C(F)(F)F)c3)CC2)cc1 (configuration not stated)
i	.	COCC(=O)N1CCC[C@@]2(CCN(Cc3cc(C(F)(F)F)cc(C(F)(F)F)c3)C2)C1
i	>57	O=C(CN1CCN(c2ccc(Cl)cc2)CC1)c1ccc2c(c1)OCO2
i	>57	COC(=O)C1(C)NC(c2cccs2)C2C(=O)N(c3ccccc3F)C(=O)C21 (configuration not stated)
i	>57	Cc1cccc(/N=C/c2c(O)cc(C)oc2=O)n1
i	.	CC1Cc2nc(SCC(=O)Nc3nccs3)n(C)c(=O)c2S1 (configuration not stated)

Complete entries as entered above. Order of screens: TsaE inh, PK Bst
Results for CCC(=O)c1ccc(OCC(O)CN2CCN(c3cccc(C(F)(F)F)c3)CC2)cc1 (configuration not stated) → i, >57
Results for COC(=O)C1(C)NC(c2cccs2)C2C(=O)N(c3ccccc3F)C(=O)C21 (configuration not stated) → i, >57
Results for CCC(NC(=O)NCCCn1ccnc1)(C(F)(F)F)C(F)(F)F → i, >57
Results for COC(=O)c1ccc(C(=S)N2CCOCC2)cc1 → i, >57

Continuation:
TsaE inh	PK Bst	Structure
i	>57	OC1(c2ccc(Br)cc2)CCNCC1
i	>57	CN(C)CCNC(=O)c1ccccc1-c1ccccc1
i	>57	Cn1c(=O)c2c(nc(OCc3cccnc3)n2Cc2c(F)cccc2Cl)n(C)c1=O
i	.	CCOC(=O)c1ccc(NC(=O)c2ccc(C)c(S(=O)(=O)N3CCOCC3)c2)cc1
i	.	COc1ccc(N2C(=O)CC(N3CCN(c4ccccc4F)CC3)C2=O)cc1 (configuration not stated)
i	.	CCn1c(=O)c2c3c(sc2n(C)c1=O)CCC3
i	.	COc1cccc(C(c2sc3ncnn3c2O)N2CC(C)OC(C)C2)c1 (configuration not stated)
i	>57	O=C(CSc1nc2ccccc2c(=O)n1Cc1ccco1)NCc1ccco1
i	.	COc1ccc2[nH]c(=O)c(CN(CC3CCCO3)C(=O)Nc3ccccc3)cc2c1 (configuration not stated)
i	.	CC1CCCCN1CCCNC(=O)C1CCN(c2nc3ccccc3o2)CC1 (configuration not stated)
i	.	Cc1ccccc1Cn1cc(/C=N/n2cnnc2)c2ccccc21
.	>25.6	COc1cc(C(=O)Nc2nccs2)cc(OC)c1OC
i	>57	CC(=O)Cc1ccccc1OCC(=O)O
i	>57	CCOC(=O)c1sc(NCC2CCCO2)nc1C (configuration not stated)
i	>57	CCOc1cc(-c2c(C#N)c(N)nc3c2CCCC3)ccc1O
i	>57	Cc1cc(NC(=O)c2cc(C)on2)n(-c2ccccc2)n1
i	.	COc1ccc(-c2coc3ccc(O[C@@H]4O[C@@H](COC(C)=O)[C@@H](OC(C)=O)[C@@H](OC(C)=O)[C@H]4OC(C)=O)c(OC(C)=O)c3c2=O)cc1
i	.	CC(=O)OCc1ccco1
i	.	CCOC(=O)Nc1nc(-c2ccccc2)c(C)s1
i	>11.4	CCC(=O)Nc1nc2ccc(NC(C)=O)cc2s1
i	.	O=C(COc1ccccc1)NCCc1nc2ccccc2[nH]1
i	>57	CC1CN(Cc2nc3c(c(=O)n(C)c(=O)n3C)n2CCCc2ccccc2)CC(C)O1 (configuration not stated)
i	>57	CCOc1ccccc1NC(=O)C1CCN(S(=O)(=O)c2c(C)noc2C)CC1
.	>11.4	O=C(NCc1ccco1)c1ccc(=O)[nH]n1
i	>57	Cc1cnc(C)c(N2CCC(C(=O)NCc3cccs3)CC2)n1
i	.	CC(C)(C)C(=O)/C=C(\N)c1ccccn1
i	>57	Cc1nc2ncnn2c(N2CCN(C(=O)Cc3cccs3)CC2)c1C
i	>57	COCCn1c(C)cc(C(=O)CSc2ccc(NC(C)=O)cc2)c1C
i	>57	CCOC(=O)N1CCN(CC(=O)Nc2c(C(=O)OC)[nH]c3ccccc23)CC1
i	>57	CCOc1ccc(/C(O)=C2/C(=O)C(=O)N(CCOCCO)C2c2ccccc2)cc1 (configuration not stated)
i	>57	Cc1oc2cc(OC(C)C(=O)O)ccc2c(=O)c1Oc1ccccc1 (configuration not stated)
i	.	Cc1ccc(-c2cc(C(F)(F)F)nn2-c2ccc(S(N)(=O)=O)cc2)cc1
i	.	COc1ccc(-n2c(Cc3cccn3C)nnc2SCC(=O)Nc2ccc(F)cc2)cc1
i	>57	CCN(CC)S(=O)(=O)c1ccc2[nH]cc(C(=O)NCCN3CCCCC3C)c(=O)c2c1 (configuration not stated)
i	>57	N#Cc1ccc(COC(=O)c2ccc3c(=O)[nH]c(CN4CCOCC4)nc3c2)cc1
i	>57	COC(=O)c1ccccc1NC(=O)CN1CCC(NC(=O)c2ccccc2C)CC1
i	>57	Cc1cc(=O)[nH]c(SCc2nc3ncccn3c2Br)n1
i	>57	N#Cc1c(-c2ccco2)cc(C2CC2)nc1SCC(=O)c1ccccc1
i	>57	C=CCn1c(SCC(=O)Nc2cc(NC(C)=O)ccc2OC)nnc1-c1cccnc1
i	.	CCOC(=O)N1CCN(C(=O)C2CCN(c3ncnc4c3sc3cccc(F)c34)CC2)CC1
i	.	CCN1CCN(C(=O)c2cn(CC)c3ccc(S(=O)(=O)N(C)C)cc3c2=O)CC1
i	>57	COc1ccc(OC)c(C2C3=C(CCCC3=O)Nc3nc4ccccc4n32)c1 (configuration not stated)
i	.	CCN1C(=O)N(CC)C(O)(c2ccccc2)C1(O)c1ccccc1 (configuration not stated)
i	>57	CNc1oc(Cc2ccccc2)nc1S(=O)(=O)c1ccc(Cl)cc1
i	>57	CC(OC(=O)c1ccncc1)C(=O)Nc1cccc(Cl)c1 (configuration not stated)
i	.	CC1CCC2CC1C2(C)C (configuration not stated)
i	.	CCOC(=O)C(/C(N)=N/C(=O)Nc1ccccc1)=C(\C)O
i	>57	CCOc1ccccc1OCCn1nnc2ccccc21
i	.	COc1ccc(NC(=O)N2CC3(CCN(C(=O)c4ccncc4)CC3)C2)cc1
i	>57	CCOc1cc(C2C(C#N)=C(N)OC(C)=C2C(C)=O)cc(Br)c1O (configuration not stated)
i	.	CNC(=O)CSCc1c(Cl)cccc1Cl
i	.	Brc1cc(Br)c(Oc2cc(Br)c(Br)cc2Br)cc1Br
i	.	Cc1ccc(N=Nc2c(O)c(S(=O)(=O)O)cc3cc(S(=O)(=O)O)ccc23)c(C)c1
i	>57	COP(=O)(/C=C/c1ccccc1)C(O)c1ccc(F)cc1 (configuration not stated)
i	.	O=C(CN1CCCC1)Nc1ccc(-c2nc3cc(NC(=O)CN4CCCC4)ccc3o2)cc1
i	>57	Cc1cc(N2C(=O)C(O)=C(C(=O)c3ccc(C)o3)C2c2cccs2)no1 (configuration not stated)

Some of the entries above, set out differently:
structure,TsaE inh,PK Bst
CCOc1cc(C2C(C#N)=C(N)OC(C)=C2C(C)=O)cc(Br)c1O (configuration not stated),i,>57
CNC(=O)CSCc1c(Cl)cccc1Cl,i,.
Brc1cc(Br)c(Oc2cc(Br)c(Br)cc2Br)cc1Br,i,.
Cc1ccc(N=Nc2c(O)c(S(=O)(=O)O)cc3cc(S(=O)(=O)O)ccc23)c(C)c1,i,.
COP(=O)(/C=C/c1ccccc1)C(O)c1ccc(F)cc1 (configuration not stated),i,>57
O=C(CN1CCCC1)Nc1ccc(-c2nc3cc(NC(=O)CN4CCCC4)ccc3o2)cc1,i,.
Cc1cc(N2C(=O)C(O)=C(C(=O)c3ccc(C)o3)C2c2cccs2)no1 (configuration not stated),i,>57

The list goes on:
TsaE inh	PK Bst	Structure
i	.	CCNc1cc2oc(=O)c(CN3CCOCC3)c(C)c2cc1C
i	>57	O=C(O)CSc1nnc(-c2ccco2)o1
i	>57	Cc1ccccc1NS(=O)(=O)c1ccc(OCC(=O)NCc2ccco2)cc1
i	>57	C=CCn1c(N)c(C(=O)NCc2cccnc2)sc1=S
i	>57	CNc1nc(Oc2ccccc2C(=O)OC)nc(SC)n1
i	>57	CCOC(=O)c1ccc(NC(=O)c2ccc(CN3CCOCC3)cc2)cc1
i	>57	Cc1cc(C)c2cc(C#N)c(N3CCCC3)nc2c1
i	>57	CCc1ccccc1NC(=O)CSC1=C(C#N)C(c2ccc3c(c2)OCO3)C2=C(CCCC2=O)N1 (configuration not stated)
i	.	O=C(CSCc1c(F)cccc1Cl)NCc1ccco1
i	>57	O=S(=O)(CCOc1ccccc1)c1nc2ccccc2[nH]1
i	.	CCCCCOc1ccc(/C=c2\sc3ncnn3c2=O)cc1
i	>57	O=C(NC1CCCCCC1)C1c2ccccc2C(=O)N1C1CC1 (configuration not stated)
i	>57	CC(C)[C@H](NC(=O)Nc1ccc(S(N)(=O)=O)cc1)C(=O)O
i	.	COc1ccc(C(=O)c2ccccc2O)c(O)c1
i	.	O=C(Nc1ccc(CN2CCOCC2)cc1)c1cc2ccccn2n1
.	>25.6	Cc1cc(SCCC(=O)O)nc2ccccc12
i	>57	CCOc1ccc(Cl)cc1S(=O)(=O)n1nnc2ccccc21
i	>57	Cc1nnc(SCC(=O)Nc2ccc(N3CCOCC3)cc2)o1
i	.	CC(C)=C1C2C=CC1C(C(=O)Nc1cccc(C)c1)C2C(=O)O (configuration not stated)
i	.	Cc1ccccc1-c1nc(CN2CCC(C(=O)O)CC2)c(C)o1
i	>57	CC(C)C(c1nnnn1Cc1ccccc1)N1CCN(Cc2ccco2)CC1 (configuration not stated)
i	>57	O=S(=O)(c1cccc(C(F)(F)F)c1)N1CCN(c2nnnn2-c2ccccc2)CC1
i	>57	N#Cc1c2n(c(=O)[nH]c1=O)CCCCC2
i	>57	O=C(CNS(=O)(=O)c1ccccc1)N1CCN(c2ccccc2)CC1
i	.	CCN(CC)CC(=O)Nc1cc(C)c2c(=O)oc3ccccc3c2n1
i	.	CN1CCN(c2ncncc2-c2ccccc2C(F)(F)F)CC1
i	.	O=S(=O)(c1ccc2nc(COc3ccc(Cl)cc3Cl)[nH]c2c1)N1CCOCC1
i	>57	O=C(Nc1ccccn1)c1cccnc1
i	>57	Cc1c(N(C)C(=O)C23CC4CC(CC(C4)C2)C3)c(=O)n(-c2ccccc2)n1C
i	.	COc1ccc(C2C(C(C)=O)=C(C)N=c3s/c(=C\c4ccc5c(c4)OCO5)c(=O)n32)c(OC)c1 (configuration not stated)
i	>57	COC(=O)c1ccc(C(=O)OC)c(NC(=O)CN2CCN(c3ccccc3)CC2)c1
i	.	CC(=O)NC1=C(OS(=O)(=O)c2ccc(C)cc2)CN(C)C1=O

Laid out differently: entries from further up.
canonical_smiles,TsaE inh,PK Bst
CCN(CC)CC(=O)Nc1cc(C)c2c(=O)oc3ccccc3c2n1,i,.
CN1CCN(c2ncncc2-c2ccccc2C(F)(F)F)CC1,i,.
O=S(=O)(c1ccc2nc(COc3ccc(Cl)cc3Cl)[nH]c2c1)N1CCOCC1,i,.

Additional compounds follow.
TsaE inh	PK Bst	Structure
i	>57	O=C(OC(C(=O)NC1CCCC1)c1ccccc1F)c1ccco1 (configuration not stated)
i	.	CN(C)C(N)=NCCC[C@H](N)C(=O)O
i	>57	Cc1cc(NC(=O)CCCOc2ccc(Cl)cc2Cl)no1
i	.	COc1ccc2c(c1OC)C(=O)OC2Nc1ccccn1 (configuration not stated)
i	>57	CC(=C/C(=O)O)/C=C/c1cccs1
i	>57	Cc1cccc(N(C(=O)Cn2nnc3ccccc32)C(C(=O)NCc2ccco2)c2ccncc2)c1 (configuration not stated)
i	.	CCOc1ccc2c(c1)C(C)=CC(C)(C)N2
i	.	O=C(O)c1cccc(S(=O)(=O)N2CCCC2)c1
i	>57	COc1cccc2cc(C(=O)NCC3CCCO3)c(=O)oc12 (configuration not stated)
i	>57	Cc1cnc(NC(=O)c2ccc3c(c2)C(=O)N(Cc2ccco2)C3=O)s1
i	>57	COc1ccc(N(CC(=O)N2CCc3ccccc32)S(=O)(=O)c2c(C)noc2C)cc1
i	>57	Cn1nc(C(=O)N2CCCC2)c2ccccc2c1=O
i	>57	CCn1c(COc2ccccc2C)nnc1SCC(=O)Nc1cc(C)on1

Source: PubChem BioAssay (National Center for Advancing Translational Sciences (NCATS))
